# Bioassay records as filed in PubChem BioAssay.
# GIV Gai3 FP: inhibitors of GIV GBA-motif binding to rat Galpha-i3 | P08753 | Galpha-i3/FITC-GIV peptide fluorescence polarization, 90 min; stronger effect = lower value; scaled: aluminum fluoride 0%, vehicle 100% | percent of control (FP), % (no concentration beside the values) | hit rate 0.42% among 210,000;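 active = replicate mean at 85% of control or lower, very high polarization wells dropped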;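 also: wells of about 15 µL received 100 nL stock; the first replicate is given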
# Target sequence (P08753 whole entry, looked up): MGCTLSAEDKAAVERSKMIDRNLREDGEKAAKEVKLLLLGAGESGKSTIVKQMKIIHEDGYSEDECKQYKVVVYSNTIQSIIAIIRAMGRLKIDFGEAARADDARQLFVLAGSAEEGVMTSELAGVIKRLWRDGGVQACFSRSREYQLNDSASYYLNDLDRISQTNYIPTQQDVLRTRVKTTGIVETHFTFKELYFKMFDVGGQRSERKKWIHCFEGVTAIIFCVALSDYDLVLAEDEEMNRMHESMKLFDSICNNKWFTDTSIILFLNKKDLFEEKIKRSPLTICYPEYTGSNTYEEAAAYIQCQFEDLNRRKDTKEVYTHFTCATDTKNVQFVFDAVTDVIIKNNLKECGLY
# HCMV NEC inh: cytomegalovirus nuclear egress complex inhibition; HTRF UL50-UL53 interaction, normalized percent inhibition; inhibition, % (no concentration beside the values); hit rate 0.15% among 190,000; AID 1918969;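 active = both replicates at 50% or more, plus weaker picks with an unusually low signal ratio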;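 also: stock transfer was 100 nL into about 20 µL; 0% = negative control wells and 100% = wells with untagged competitor protein; inactives centre near -12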
# Sa growth inh: inhibitors of Staphylococcus aureus growth at 42 °C; S. aureus RN4220 growth, OD600, 20 h; stronger effect = lower value; relative growth, % (no concentration beside the values); hit rate 0.53% among 170,000;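 active = growth at 42 °C up to 50% and 20 or more points under that at 30 °C, or under 10% at both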;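 also: 300 nL library stock went into each well; scaled to the means of positive and negative controls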
# Sa growth inh second temp: recorded beside Sa growth inh, whose call it bears; relative growth, %; measured here: growth at 30 °C;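 optical density after 20 h as mean of two plates; 100% = untreated growth and lower means inhibition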
# Active calls of the source: *; . = no result given; & = joins results of further samples.
# Start of the listing, in advance (four entries):
(1) O=S(=O)(N1CCCCC1)N1CCN(c2ccc(F)cc2)CC1
(2) NS(=O)(=O)c1ccc(CCNC(=O)c2cc(-c3ccccc3)nc3ccccc23)cc1
(3) CCNc1nc(OCC(F)(F)F)nc(N(c2ccccc2)c2ccccc2)n1
(4) COc1ccc(-c2noc(-c3ccc(NCc4ccccc4OC)c([N+](=O)[O-])c3)n2)cc1
Screen / compound no.,1,2,3,4
Sa growth inh,104,.,114,93
GIV Gai3 FP,100,100,104,99
Sa growth inh second temp,80,.,81,83
HCMV NEC inh,-8,-38,0,-25

# This part in full, repeating the preview:
(1) O=S(=O)(N1CCCCC1)N1CCN(c2ccc(F)cc2)CC1
(2) NS(=O)(=O)c1ccc(CCNC(=O)c2cc(-c3ccccc3)nc3ccccc23)cc1
(3) CCNc1nc(OCC(F)(F)F)nc(N(c2ccccc2)c2ccccc2)n1
(4) COc1ccc(-c2noc(-c3ccc(NCc4ccccc4OC)c([N+](=O)[O-])c3)n2)cc1
(5) CCn1c(=O)c2sccc2n2c(CCCC(=O)N3CCN(c4ccccn4)CC3)nnc12
(6) O=c1c2ccccc2oc2cc(OCc3cccc(Cl)c3)cc(O)c12
(7) CCOC(=O)c1ccc(NC(=O)c2cnc3c(-c4ccc(F)cc4)c(C)nn3c2C)cc1
(8) O=C1Nc2ccccc2C12Nc1ccccc1S2 (stereo unspecified)
Screen / compound no.,1,2,3,4,5,6,7,8
Sa growth inh,104,.,114,93,.,.,87,51
GIV Gai3 FP,100,100,104,99,110,99,104,108
Sa growth inh second temp,80,.,81,83,.,.,95,83
HCMV NEC inh,-8,-38,0,-25,-5,-18,.,-21

(9) CC1(C)OC(=O)C=C(c2ccc(Cl)cc2)O1
(10) Cc1ccc2oc(=O)c3cnn(CC(=O)N4CCCCCC4)c3c2c1
(11) COC(=O)C1Cc2ccccc2CN1CN1C(=O)c2cc(Cl)c(Cl)cc2C1=O (stereo unspecified)
(12) CC1(C)CC2CC(C)(CN2S(=O)(=O)c2ccc(Cl)s2)C1 (stereo unspecified)
(13) CCn1cc(C2=NCCO2)c2ccccc21
(14) O=C(NCCc1ccc2c(c1)OCCO2)c1ccncc1
(15) CSCCNC(=O)c1cccc(Cl)c1
(16) Cc1cc(C)n(CC(=O)N2CCCC2)c(=O)c1C#N
Screen / compound no.,9,10,11,12,13,14,15,16
Sa growth inh,88,107,101,73,100,81,100,97
GIV Gai3 FP,99,104,.,.,101&108,.,113,100
Sa growth inh second temp,66,93,87,84,83,89,99,85
HCMV NEC inh,.,-5,-73,1,-9,-28,-10,.

(17) CC(CNC(=O)C1CCCN(C(=O)c2cc3sccc3n2C)C1)c1ccccc1 (stereo unspecified)
(18) O=C(COC(=O)c1cnccn1)NCc1ccccc1
(19) CCCNC(=O)C1CCN(C(=O)c2ccc(-n3ccc4ccccc43)s2)CC1
(20) CC(C)CC1NC(=S)N(Cc2ccccc2)C1=O (stereo unspecified)
(21) O=C(Cc1cc(=O)[nH]c(=O)[nH]1)NC1CCCC1
(22) CC1(C)CC(=O)CC(=Nc2ccc(C(=O)O)cc2)C1
(23) CCOC(=O)c1ccc(N2C(=O)Cc3cc(OCC)c(OCC)cc3C2c2ccccc2)cc1 (stereo unspecified)
(24) CCCc1ccc(S(=O)(=O)NCCn2c(-c3ccc(F)cc3)nc3cccnc32)cc1
Screen / compound no.,17,18,19,20,21,22,23,24
Sa growth inh,84,88,116,95,93,94,95,.
GIV Gai3 FP,100,.,103,.,102,100,105,104
Sa growth inh second temp,82,91,87,92,90,91,87,.
HCMV NEC inh,-16,-28,8,-12,-23,-4,4,-4

(25) O=C(COc1ccc(C(F)(F)F)cc1)c1ccc2c(c1)OCCO2
(26) Cc1ccc(OC(=O)c2cccnc2)cc1
(27) CCOC(=O)Cc1c(C)nc2c(-c3ccc(Cl)cc3)c(C)[nH]n2c1=O
(28) CCOC(=O)c1cc(COc2c(Cl)cccc2Cl)on1
(29) CCOc1cc(C2NC(=O)NC(C)=C2C(=O)OCCOc2ccccc2)ccc1O (stereo unspecified)
(30) CCOc1ccccc1CN1CCc2nc(Nc3ccccc3)ncc2C1
(31) O=C(OC/C=C/c1ccccc1)c1cccc(-n2cnnn2)c1
(32) COc1ccc(Cl)cc1S(=O)(=O)N1CCN(C(=O)c2nsc3ccc(C)cc23)CC1
Screen / compound no.,25,26,27,28,29,30,31,32
Sa growth inh,92,98,91,113,.,115,102,.
GIV Gai3 FP,.,105,.,102,105,102,.,98
Sa growth inh second temp,92,77,47,86,.,93,93,.
HCMV NEC inh,-13,11,-12,-28,-15,.,6,-27

(33) CCOc1ccc(NC(=O)C2CCCO2)cc1 (stereo unspecified)
(34) NC(=O)C1CCCN1c1c(F)c(F)c(C(=O)c2ccccc2)c(F)c1F (stereo unspecified)
(35) O=C(NCc1ccccc1)C1CC(c2ccc(F)cc2)=NO1 (stereo unspecified)
(36) O=C1CNCC(=O)N1CCc1ccccc1
(37) COc1ccc(C(=O)N2CCN(c3c(C)cccc3C)CC2)cc1OC
(38) O=S(=O)(CCC(F)(Br)C(F)(F)Br)c1ccccc1 (stereo unspecified)
(39) Cc1cc(C)c2c(=O)[nH]c(=O)n(Cc3ccccc3)c2n1
(40) Cc1cc(/C=C/C(=O)N2CCN(S(=O)(=O)c3cccs3)CC2)c(C)n1-c1ccnn1C(C)C
Screen / compound no.,33,34,35,36,37,38,39,40
Sa growth inh,87,94,102,90,104,.,114,101
GIV Gai3 FP,.,.,103,99,.,103,.,.
Sa growth inh second temp,94,105,89,89,95,.,99,97
HCMV NEC inh,-7,9,.,-19,-2,-13,5,18

(41) CCC(C)NS(=O)(=O)c1cc2c(cc1C)NC(=O)CO2 (stereo unspecified)
(42) COc1cccc2ccc(=O)[nH]c12
(43) Cn1c(CC#N)[n+](C)c2ccccc21
(44) COc1ccc(OC)c(CNC(=O)CCCn2c(=O)c3cccn3c3cccnc32)c1
(45) CCOc1ccc(NC(=O)C(C)Oc2ccccc2)cc1 (stereo unspecified)
(46) Cc1nc2c(ccc3nc(NC(=O)c4ccc(N5C(=O)CCC5=O)cc4)sc32)s1
(47) O=C(NCc1ccc(Cl)cc1)C1CCN(S(=O)(=O)c2cccnc2)CC1
(48) CC(CCc1ccccc1)NC(=O)COc1nc2ccccc2nc1N1CCOCC1 (stereo unspecified)
Screen / compound no.,41,42,43,44,45,46,47,48
Sa growth inh,.,91,81,94,106,86,.,76
GIV Gai3 FP,110,99,.,101,.,105,102,.
Sa growth inh second temp,.,88,92,86,94,70,.,91
HCMV NEC inh,-26,-7,-11,-35,5,-4,-27,-19

(49) O=C(COc1ccc2ccccc2c1Br)NCc1ccco1
(50) Cc1cc(C)c(N=C(NC#N)Nc2c(C)cc(C)cc2C)c(C)c1
(51) C=CCC(NCc1cccs1)c1ccco1 (stereo unspecified)
(52) Cc1noc(-c2cc3cc(Br)ccc3oc2=O)n1
(53) O=c1[nH]c(SCc2cccc(Cl)c2)nc2c1CCC2
(54) COc1ccccc1C1Oc2ccc(Cl)cc2C2CC(c3ccc(Cl)cc3)=NN21 (stereo unspecified)
(55) CC(C)N(C(=O)CSc1ccccn1)c1ccccc1
(56) COc1ccc(-c2noc(-c3nnn(-c4ccc(C(C)C)cc4)c3C)n2)cc1OC
Screen / compound no.,49,50,51,52,53,54,55,56
Sa growth inh,141,96,101,94,116,.,100,99
GIV Gai3 FP,100,.,.,113,101,104,.,102
Sa growth inh second temp,99,87,91,96,90,.,82,100
HCMV NEC inh,-16,-30,0,.,-11,-18,-33,.

# Single records, as listed above. Values in the order: Sa growth inh | GIV Gai3 FP | Sa growth inh second temp | HCMV NEC inh
# O=c1[nH]c(SCc2cccc(Cl)c2)nc2c1CCC2 is listed as 116 | 101 | 90 | -11
# O=C(COc1ccc2ccccc2c1Br)NCc1ccco1 is listed as 141 | 100 | 99 | -16

# Next part:
(57) Cn1cnc2c(=O)oc3ccc(S(=O)(=O)NCCC4=CCCCC4)cc3c21
(58) S=C(NCc1cccnc1)Nc1ccccc1
(59) O=C1CCC(C(=O)OCC(=O)Nc2ccc3c(c2)OCO3)=NN1
(60) Cc1sc2ncn(CC(=O)NCC3COc4ccccc4O3)c(=O)c2c1S(=O)(=O)N1CC(C)CC(C)C1 (stereo unspecified)
(61) O=C(Nc1ccc(Br)cc1)C1C(=O)NC23CCCCC2C1c1ccccc1O3 (stereo unspecified)
(62) Cc1ccc(N2CC(=O)N(C)C2=S)cc1
(63) Cc1ccc(-c2cc(C(=O)N3CCN(S(=O)(=O)c4ccc(Br)cc4)CC3)[nH]n2)c(C)c1
(64) Cc1cccc(N2CCN(S(=O)(=O)c3ccc(F)c(C(=O)Nc4cccc(Cl)c4C)c3)CC2C)c1 (stereo unspecified)
Screen / compound no.,57,58,59,60,61,62,63,64
Sa growth inh,93,107,92,109,96,125,89,135
GIV Gai3 FP,99,.,.,99,101,107,93,108
Sa growth inh second temp,89,99,92,83,93,97,89,102
HCMV NEC inh,-19,4,-18,-6,-4,-11,.,.

(65) CCOC(=O)c1cnn(C(N)=S)c1N
(66) CCC(=O)Oc1c(Sc2ccc(Cl)cc2)c(C)nn1-c1ccccc1
(67) CCn1c(CNC(=O)c2ccco2)nnc1SCC(=O)c1ccccc1
(68) COc1ccccc1OC(=O)NC(=O)C(F)(F)F
(69) CCCSC1=NC2(CCN(C(=O)NC3CCCCC3)CC2)N=C1c1ccc(OC)cc1
(70) O=C(NCCNC1CCCC1)c1cccs1
(71) CC1OC23CCCCC2C(C#N)(C#N)C1(C#N)C(=N)O3 (stereo unspecified)
(72) COC(=O)c1ccn(-c2nc(-c3ccc(Cl)cc3)cc(C(F)(F)F)n2)n1
Screen / compound no.,65,66,67,68,69,70,71,72
Sa growth inh,101,31,102,111,83,104,106,97
GIV Gai3 FP,99,103,105,.,106,100,107,108
Sa growth inh second temp,84,12,88,89,73,93,82,85
HCMV NEC inh,-7,-13,-24,-18,.,24,-13,-17

(73) COCCNC(=O)C1(C)Cn2c(cc3ccsc32)C(=O)N1c1ccc(OC)c(OC)c1 (stereo unspecified)
(74) COc1ccc(C(=O)Nc2ccc(-c3nnc4n3CCCCC4)cc2)cc1
(75) Nc1nc(CSC(=S)N2CCCCC2)nc(Nc2ccccc2)n1
(76) CCOc1ccc(CC(=O)NCc2cn3ccc(C)cc3n2)cc1
(77) CC(C)(C)c1ccc(C(=O)Nc2ccc3nc(SCC(=O)N4CCCC4)sc3c2)cc1
(78) Cc1cc(CNC(=O)c2cc(C)n(C)n2)c(C(F)(F)F)o1
(79) COc1ccc(C(O)c2nc3ccccc3s2)cc1 (stereo unspecified)
(80) CC1CCN(C(=O)c2ccccc2Br)CC1
Screen / compound no.,73,74,75,76,77,78,79,80
Sa growth inh,.,82,111,95,93,99,94,97
GIV Gai3 FP,102,100,101,100,103,93,102,.
Sa growth inh second temp,.,93,61,77,87,84,85,99
HCMV NEC inh,-29,.,.,.,-19,29,-23,7

(81) CC(Nc1oc(-c2ccc(COc3ccccc3)o2)nc1C#N)c1ccccc1 (stereo unspecified)
(82) COc1ccc2nc(-c3ccccc3)cc(NCCN(C)C)c2c1
(83) OCC(CO)(CO)NC(=S)Nc1cc(Cl)cc(Cl)c1
(84) CCCCc1ccc(NC(=O)c2ccc3c(c2)CCN3S(=O)(=O)c2ccccc2)cc1
(85) CCN(C(=O)Cc1ccc(NC2=NC3CS(=O)(=O)CC3S2)cc1)c1ccccc1 (stereo unspecified)
(86) CCc1nn2c(=O)cc(CSc3nc4sc5c(c4c(=O)n3C)CCCC5)nc2s1
(87) C=CCN(CC=C)S(=O)(=O)c1ccc(OC)cc1
(88) O=C(CSc1nnc(NC2CCCCC2)s1)OCc1nnc(-c2ccccc2)o1
Screen / compound no.,81,82,83,84,85,86,87,88
Sa growth inh,102,108,120,95,104,110,100,93
GIV Gai3 FP,103,106,101,108,106,104,102,.
Sa growth inh second temp,72,73,86,84,85,76,95,92
HCMV NEC inh,-48,-2,-14,-27,-14,4,-15,-7

# Arranged by value in Sa growth inh second temp (falling): 3 of the compounds above
no. | smiles | Sa growth inh | GIV Gai3 FP | Sa growth inh second temp
87 | C=CCN(CC=C)S(=O)(=O)c1ccc(OC)cc1 | 100 | 102 | 95
88 | O=C(CSc1nnc(NC2CCCCC2)s1)OCc1nnc(-c2ccccc2)o1 | 93 | . | 92
83 | OCC(CO)(CO)NC(=S)Nc1cc(Cl)cc(Cl)c1 | 120 | 101 | 86

# The listing continues:
(89) CC(C)c1ccccc1NC(=O)c1cccc(S(=O)(=O)N(C)C)c1
(90) CC1CC1C(=O)NC1CCCCC1C(C)(C)C (stereo unspecified)
(91) Cc1nn(C)c2ncc(C(=O)c3cc(F)ccc3O)cc12
(92) C=C(C)Cc1c(C)[nH]n(S(=O)(=O)c2ccccc2)c1=O
(93) COc1cccc(CN2CCc3nc(N4CCN(C)CC4)ncc3C2)c1
(94) Cc1ccccc1NC(=O)Cn1cc(C(=O)c2cccs2)c2ccccc21
(95) Cc1ccc(S(=O)(=O)NC(C(=O)N2CCN(c3ccc(-c4noc(C)n4)cc3)CC2)C(C)C)cc1 (stereo unspecified)
(96) Nc1nc(SCC(=O)N2N=C(c3ccco3)CC2c2cccs2)n[nH]1 (stereo unspecified)
(97) Cc1ccc(N2C(=O)C(CC(=O)Nc3ccc(Cl)cc3)N(CCN3CCN(C)CC3)C2=S)cc1 (stereo unspecified)
Screen / compound no.,89,90,91,92,93,94,95,96,97
Sa growth inh,105,99,104,112,89,99,.,97,105
GIV Gai3 FP,.,101,.,96,104,107,104,.,108
Sa growth inh second temp,89,103,98,73,93,102,.,71,76
HCMV NEC inh,-18,-8,-21,-2,.,10,-29,-31,-5
